Beta2AR agonist: beta2AR agonists driving receptor internalization, primary screen, cell-based, FAP fluorogen, flow cytometry; response, % (concentration not given with the values); 340,000 tested, 0.43% active; Am2.2-beta2AR cells; reference of the scale not given here; AID 504454, 2011;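 active means response above a set limit, near 3 SD of response in nonfluorescent compounds, cut at about 42% in these data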;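 further: stock transfer was 100 nL into about 11 µL; a reference agonist was the positive control; negative values mostly stem from fluorescent compounds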
Target sequence (P07550 whole entry, looked up): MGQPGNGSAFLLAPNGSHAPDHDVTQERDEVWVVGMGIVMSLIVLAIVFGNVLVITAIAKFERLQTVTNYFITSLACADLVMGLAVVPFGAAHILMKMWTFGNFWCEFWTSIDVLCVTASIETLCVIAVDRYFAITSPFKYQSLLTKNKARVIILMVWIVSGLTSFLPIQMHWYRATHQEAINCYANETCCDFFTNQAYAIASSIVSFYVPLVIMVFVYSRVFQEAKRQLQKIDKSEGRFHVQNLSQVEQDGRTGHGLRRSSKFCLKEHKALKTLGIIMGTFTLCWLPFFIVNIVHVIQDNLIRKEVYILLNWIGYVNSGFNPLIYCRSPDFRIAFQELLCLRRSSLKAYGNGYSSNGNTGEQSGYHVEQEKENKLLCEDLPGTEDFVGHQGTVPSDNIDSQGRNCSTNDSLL
UCH37 DUB inh: inhibitors of human UCH37 deubiquitinase, primary screen, biochemical, Ub-AMC cleavage, fluorescence. Ubiquitin carboxyl-terminal hydrolase isozyme L5 (Homo sapiens), Q9Y5K5. purified proteasome/UCH37. inhibition, % (test concentration not listed). 330,000 tested, 0.33% active;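 active means mean of two replicates above 20%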;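 further: 0% = compound-free wells with enzyme and 100% = wells lacking proteasome; stock transfer was 100 nL into about 20 µL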
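Reagent: Ub-AMC substrate; assay system: Proteasome-associated human UCH37 deubiquitinase; controls: no-proteasome and no-compound wells; read-out: % inhibition of Ub-AMC cleavage fluorescence; timing: 30 min preincubation with enzyme, 25 min cleavage at room temperature; signal: AMC fluorescence from Ub-AMC cleavage, excitation 355 nm, emission 460 nm; buffer or medium: Tris-HCl pH 7.4 plus ovalbumin, ATP-MgCl2, DTT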
Bfl-1 A1 inh: caspase 3/7 activation in MEF A1-2A-BIM cells, primary screen, A1 inhibitor project, cell-based, luminescence, HTS. Caspase-Glo 3/7 luminescence, 3 h; percent of clofoctol response, vehicle zero. caspase activation, % (concentration not given with the values). 330,000 tested, 0.066% active;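 active means over half of replicate activation scores above 10%, or exactly half above 10 with the replicate mean above 10; inconclusive means replicate mean below 10 yet half the replicates above 10; inactive means over half of replicates below 10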;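 further: wells of about 30 µL received 50 nL stock; many hits fall short of the cut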
Ecoli growth: E. coli growth inhibition, primary screen, OD600; Escherichia coli growth, 23 h; stronger effect = lower value; OD600 absorbance (no concentration beside the values); 330,000 tested, 0.21% active; AID 1053175, 2014;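 active means OD600 absorbance below the run mean of sample wells minus 3.6 SD, in any replicate, cut at about 0.56 in these data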;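 further: stock transfer was 300 nL into about 60 µL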
Vif TR-FRET: inhibitors of Vif binding to APOBEC3G peptide, primary screen, biochemical, TR-FRET, GST-Vif 1-94, biotin-A3G peptide, dose response retest (AID 1117319); TR-FRET GST-Vif / biotin-A3G peptide binding; higher % means a stronger effect; test concentration not given here; strong numbers were not always called active; Virion infectivity factor (Human immunodeficiency virus type 1 group M subtype B (isolate …; 260,000 tested, 0.57% active; inhibition, %; hits with a dose series show IC50 in µM;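 active means above the screen mean plus three standard deviations and confirmed in dose response; inconclusive means results disagree or hit not tested in dose response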;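 further: Vif residues 1-94 fused to GST binding biotinylated APOBEC3G peptide 110-148; 0% = full assay without inhibitor and 100% = GST in place of GST-Vif; retest series ran down from 100 µM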
HNF4A DNA FP: change in binding of human HNF4A to DNA, primary screen, biochemical, fluorescence polarization, FITC-DNA | 1 h | activity change, % at 10 µM | 360,000 tested, 0.3% active | AID 1224865, 2016; in the data active means activity change above about 30%, passing the limit was not always enough;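 further: controls were the assay level and a saturating level of protein; the project sought stronger binding though the title names inhibitors; some compounds called inactive have numbers as strong as hits; positive values seem to mean higher polarization but the record does not say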
Target sequence (P41235 whole entry, looked up): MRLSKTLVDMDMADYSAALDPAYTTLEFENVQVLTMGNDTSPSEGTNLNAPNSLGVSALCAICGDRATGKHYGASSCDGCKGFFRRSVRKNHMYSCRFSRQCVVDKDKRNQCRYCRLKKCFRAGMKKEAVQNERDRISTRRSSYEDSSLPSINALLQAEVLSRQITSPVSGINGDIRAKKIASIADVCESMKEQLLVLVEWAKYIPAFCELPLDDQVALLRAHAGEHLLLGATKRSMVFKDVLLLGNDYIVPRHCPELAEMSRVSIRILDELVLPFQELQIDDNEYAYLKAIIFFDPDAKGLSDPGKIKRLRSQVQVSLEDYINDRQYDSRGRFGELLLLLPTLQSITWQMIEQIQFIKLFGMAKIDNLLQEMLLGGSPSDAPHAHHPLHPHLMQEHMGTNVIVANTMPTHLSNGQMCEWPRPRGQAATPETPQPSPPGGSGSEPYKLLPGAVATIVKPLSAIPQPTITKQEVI
LANA-H2B inh: blockers of LANA interaction with H2A/H2B – biochemical, FP readout, HTS, primary screen; 320,000 tested, 0.6% active; Protein LANA1 (Human herpesvirus 8 type P (isolate GK18)), Q9QR71; inhibition, % (no concentration beside the values); cell-free LANA-H2A/H2B peptide, fluorescence polarization; in the data active means inhibition mostly above about 10%, no sharp cut-off; inactive means mostly below about 6.7%;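 further: stock transfer was 7.5 nL into about 10 µL; 0% = median of vehicle wells and 100% = median of positive control wells; one replicate is shown; the record names a cut of 25% in any replicate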
* marks the source's active call; other numbers are inactive results; ? = inconclusive; · = no result given.

Each structure is followed by: Beta2AR agonist	UCH37 DUB inh	Bfl-1 A1 inh	Ecoli growth	Vif TR-FRET	HNF4A DNA FP	LANA-H2B inh
O=C(O)c1cc(CN2CCOCC2)oc1-c1ccccc1
→ 2	-0.6	-0.3	0.69	-3%	0.5	-2.2
O=C(c1ccc2c(c1)OCO2)N1CCC2(CC1)Oc1ccc(F)cc1C(=O)C21CC(c2ccccc2)=NO1 (stereo unspecified)
→ -4	1.9	0.2	0.67	3%	-5.9	-1.0
CC1CCCCC12NC(=O)N(CC(=O)Nc1ccc(S(=O)(=O)Nc3ncccn3)cc1)C2=O (stereo unspecified)
→ 0	3.1	-0.9	0.7	16%	-2.9	-4.0
Cc1cccc(N(Cc2ccccc2)C(=O)C2CCN(C(=O)c3ccccc3C)CC2)c1
→ 3	1.8	-0.2	0.66	-13%	0.7	-2.9
COC(=O)/C=C1\N/C(=N\c2nc(C)cc(C)n2)N(c2ccccc2)C1=O
→ -4	3.5	0.2	0.7	5%	5.0	-2.5
CSc1nc(C)cc(C)c1S(=O)(=O)c1ccccc1C
→ -5	1.7	1.4	0.78	16%	-0.3	-6.9
O=C(Cn1cnc2c(oc3nc4c(cc32)CCCC4)c1=O)Nc1cccc(Cl)c1
→ -5	·	3.8	·	·	4.5	4.7
Cc1cccc(Sc2c(C=O)c3ccccc3n2C)c1
→ -6	-1.4	0.4	0.72	-7%	-1.0	3.4
C=CCNC(=O)c1ccc(S(=O)(=O)CC)c(Cl)c1Cl
→ -4	-1.1	0.5	0.7	4%	4.9	-3.6
COc1ccc(S(=O)(=O)N2CCN(Cc3cc(OC)c(OC)cc3OC)CC2)cc1
→ 4	-1.1	-0.2	0.67	-8%	0.3	2.4
C=CCSc1nc(N)c(C#N)c(-c2ccc(C)cc2)c1C#N
→ 6	3.6	-0.5	0.79	-21%	0.2	-6.1
O=C(CCCN1C(=O)/C(=C/c2ccco2)SC1=S)Nc1ccccc1
→ -3	8.0	1.5	0.7	·	16	-1.7
O=C(CN1C(=O)c2ccccc2C1=O)Nc1ccc(N2CCOCC2)cc1
→ -3	0.7	1.5	0.73	3%	4.1	0.3
CCN(CC)S(=O)(=O)c1cccc(N=Nc2sc(N)nc2C)c1
→ 8	4.7	0.6	0.67	-11%	-0.9	1.3
COc1cccc(C(=O)N2CCN(C3CCCCC3)CC2)c1
→ 10	·	0.6	·	-3%	0.2	-0.2
CCCCC(=O)Nc1ccc(C(=O)NCCc2ccccc2)cc1
→ 2	-1.0	0.9	0.7	-3%	0.8	0.2
C/C(=N\NC(=O)c1c(Br)c(C)nn1C)c1ccc(NC(=O)C(C)Oc2ccc(Cl)cc2C)cc1 (stereo unspecified)
→ -1	·	-0.9	·	-7%	-1.3	0.8
COc1ccccc1N1CCN(C(=O)C(Sc2ccccc2)c2ccccc2)CC1 (stereo unspecified)
→ 4	3.7	-1.3	0.74	2%	-0.1	1.0
O=C(C1=C(O)C(=O)N(CCN2CCOCC2)C1c1ccncc1)c1ccco1 (stereo unspecified)
→ 2	13	-0.1	0.74	1%	-2.2	-2.0
Cc1ccccc1CNC(=O)c1ccccc1SCC(=O)NCc1ccco1
→ -4	1.7	·	0.68	5%	-1.0	·
COc1ccc(NC(=O)N[C@@H](Cc2ccccc2)C(=O)NN)cc1
→ 0	5.2	0.2	0.65	6%	1.1	-3.5
CCOC(=O)c1c(NC(=O)Nc2cccc(Cl)c2)sc(C)c1C
→ 2	-23	0.1	0.7	-7%	2.1	0.8
Cc1cccc(-c2n[nH]c(=S)n2/N=C/c2ccc(C)o2)c1
→ -2	·	1.1	·	·	1.3	0.2
C=CCSc1ncccc1C(=O)O
→ 1	0.4	0.4	0.66	29%	-2.0	-4.6
COc1ccc(S(=O)(=O)NCCSc2ccc(Cl)cc2)cc1OC
→ -6	2.6	-0.8	0.71	·	-1.4	5.7
Cc1n[nH]c(=O)c2c(NC(=O)COC(=O)COc3cccc(Br)c3)oc(C)c12
→ -3	0.6	-1.1	0.72	0%	-2.0	-1.2
COc1ccc(C(=O)O/N=C(\N)Cc2ccc(Cl)c(Cl)c2)cc1OC
→ 14	-0.1	-0.3	0.64	27%	-2.2	2.6
CCCn1c(N)c(C(=O)CSc2nc3ncc(Cl)cc3[nH]2)c(=O)n(C)c1=O
→ -31	-2.7	-0.7	0.72	·	-2.1	5.2
CC(C)N(C(=O)CSc1nnc(CN2CCCCCC2=O)n1-c1ccccn1)C(C)C
→ -6	3.3	0.3	0.67	2%	3.3	-3.8
O=C(Nc1ccc(NC(=O)c2cccc([N+](=O)[O-])c2)cc1)c1cccc([N+](=O)[O-])c1
→ -8	2.9	-0.9	0.67	0%	0.1	-0.5
Cc1csc(NC(=O)CSc2ccc(-c3ccc(F)cc3)nn2)n1
→ 6	0.5	-0.5	0.7	-2%	-2.8	0.8
CSc1ccc(/C=C(/Sc2nnc(-c3ccccc3)o2)C(=O)O)cc1
→ -10	-60	-0.4	0.68	·	0.9	1.2
C/C(CC(=O)Nc1ccc2c(c1)OCCO2)=N\NC(=O)C(=O)Nc1ccccc1C
→ 11	·	0.7	·	6%	3.5	-6.8
Cc1ccc(C2(c3ccc(C)cc3)NC(=O)N(CC(N)=O)C2=O)cc1
→ 2	3.7	1.3	0.67	·	1.5	-0.1
CCCC(=O)NC(c1ccc(C(C)C)cc1)c1ccc2cccnc2c1O (stereo unspecified)
→ 6	·	-0.7	·	22%	-1.9	-0.8
CCCn1c(SCC(=O)c2cc(OC)ccc2OC)nnc1C(C)C
→ -4	2.7	0.9	0.7	-5%	0.0	-6.3
Cc1ccc(Sc2nnc(-c3ccccc3)cc2C#N)cc1
→ 4	1.9	-1.0	0.81	1%	-0.9	1.0
CCc1ccc(NC(=O)CCS(=O)(=O)c2ccc(Cl)cc2)cc1
→ -15	5.5	-0.3	0.68	0%	5.7	-3.9
COc1ccc(-n2nc3c(N4CCC(C(=O)NCC(C)c5ccccc5)CC4)nnc(C)c3c2C)cc1 (stereo unspecified)
→ 21	-102	-1.0	0.65	·	12	1.5
Cc1ccc(NC(=O)COc2nc(C)cs2)cc1
→ -4	1.8	-1.3	0.63	0%	-1.7	1.1
CCn1c(=O)c(C(=O)NC(C)C)c(O)c2ccccc21
→ 8	-1.1	-0.2	0.67	-5%	-1.1	6.2
CCOC(=O)N1CCN(c2c(NCc3ccccc3Cl)c(=O)c2=O)CC1
→ -12	2.2	0.1	0.67	78%	1.6	-0.9
C=CCO/N=C(/CCC)C1=C(N)CC(C)(C)CC1=O
→ -6	·	1.0	·	-1%	5.7	-0.8
Cc1[nH]c2ccccc2c1C(=O)C(C)OC(=O)c1ccc(Cl)nc1 (stereo unspecified)
→ 13	1.9	-0.7	0.63	1%	6.0	-4.3
Cn1cc(CN2CCC(CO)(CCCc3ccccc3)CC2)c(-c2ccccc2)n1
→ -4	-2.1	0.4	0.68	2%	-1.2	-7.1
CN(C)c1ccc(-c2nnc(-c3cccs3)o2)cc1
→ -11	-225	-16	0.71	4%	-2.9	5.4
CCOc1ccc(C(=O)NCCn2cc(SCC(=O)Nc3cc(C)on3)c3ccccc32)cc1
→ -6	2.7	1.2	0.69	8%	-0.5	-0.9
CCCn1c(NCc2ccco2)nc2ccccc21
→ -5	1.3	1.1	0.61	0%	-0.1	0.0
Cc1ccnc(NC(=O)C(C)N2C(=O)c3ccccc3C2=O)c1 (stereo unspecified)
→ 1	4.8	-0.6	0.72	-6%	0.0	-3.8
CCOC(=O)CSc1nc2cc(C(=O)OC)ccc2c(=O)n1CCN1CCOCC1
→ 0	2.6	0.1	0.69	?	0.6	10
Oc1ccc(/C=N/N=C/c2ccc(O)cc2)cc1
→ -5	·	0.2	·	5%	0.7	0.9
CN(C)S(=O)(=O)N1CCC(Oc2cccc(C(=O)N3CCCCCCC3)c2)CC1
→ -7	0.0	0.7	0.7	·	-1.2	-0.1
CCOC(=O)COc1ccccc1/C=C1\NC(=O)NC1=O
→ -3	2.7	0.8	·	?	1.8	1.3
CCOC(=O)C1(Cc2ccccc2C(F)(F)F)CCN(C(C)CSC)CC1 (stereo unspecified)
→ -1	4.0	-0.6	0.67	·	0.9	-2.4
CCc1ccc(C(=O)NC(CCSC)C(=O)O)cc1 (stereo unspecified)
→ -4	2.5	0.1	0.7	17%	-0.7	2.3
CC(=O)c1cc(-c2ccc(F)cc2)n(CC(=O)NCc2cccs2)c1C
→ -3	-0.6	-0.8	0.81	4%	-3.2	-2.1
O=C(Nc1nccs1)c1cc(Cl)nc2ccccc12
→ -2	7.5	-0.2	0.66	-2%	7.1	-0.3
Cc1ccc(/C=C/C(=O)OCc2nc(N)nc(Nc3ccccc3C)n2)o1
→ -15	7.4	-0.3	0.66	-5%	5.4	1.9
O=C(N/N=C/c1ccc(-c2cccc(C(F)(F)F)c2)o1)c1ccccc1Br
→ -49	·	-0.6	·	-3%	6.4	-5.5
CCCCCn1c(CNC(=O)c2cccs2)nc2ccccc21
→ -18	1.3	0.7	0.68	0%	-0.3	-3.6

Next compounds follow.
Each structure is followed by: Beta2AR agonist	UCH37 DUB inh	Bfl-1 A1 inh	Ecoli growth	Vif TR-FRET	HNF4A DNA FP	LANA-H2B inh
Cc1ccc(C(=O)NNC(=O)C2CCN(c3nccc(C)n3)CC2)cc1
→ -6	-5.9	-0.5	0.72	4%	-1.0	0.4
CN(CC(=O)NCCCN1CCOCC1)S(=O)(=O)c1ccc(Br)cc1
→ -7	1.6	0.7	0.7	23%	-3.3	-1.3
COc1ccccc1N1CCN(C2CCCN(C(=O)c3cscn3)C2)CC1 (stereo unspecified)
→ -12	·	-0.1	·	·	-4.3	3.7
CCOc1ccc(S(=O)(=O)NC2CCCC2)cc1C
→ -10	0.4	0.7	0.63	·	3.1	-4.0
C=CCN(C(=O)c1csnn1)C(C(=O)NC1CCCC1)c1c(F)cccc1Cl (stereo unspecified)
→ 4	2.3	0.1	0.69	·	-3.2	0.8
O=C(Cc1cccs1)N/N=C/c1ccc(OCc2ccccc2)cc1
→ -11	·	-0.5	·	4%	-1.8	2.8
O=C(/C=C/c1ccc(S(=O)(=O)N2CCOCC2)cc1)NCCCn1ccnc1
→ 2	3.9	1.1	0.71	-4%	-2.4	7.9
CCOC(=O)C1(Cc2cccc(F)c2)CCN(C(=O)C2CCOCC2)CC1
→ 4	3.2	0.7	0.62	-10%	0.6	-2.8
N#C/C(=C\c1cccnc1)C(=O)Nc1ccc(S(N)(=O)=O)cc1
→ 0	-0.1	-1.3	0.74	-5%	1.3	8.2
CC(=O)n1c2ccccc2c2c1c1ccccc1n2C
→ 22	-208	-0.1	0.73	-7%	-15	-0.5
CN(C)C(=O)CCc1ccc2c3c([nH]c2c1)[C@]1(CCc2ccccc2)[C@@H](C(=O)N2CCCCC2)C[C@H](CC(=O)NCc2ccco2)C(=O)N1CC3
→ 3	2.3	·	0.73	1%	1.2	·
CC(=O)C(Cc1ccccc1)NC(=O)COC(=O)c1cccc(C)c1[N+](=O)[O-] (stereo unspecified)
→ 4	2.5	0.5	0.68	·	2.6	0.6
